# Assay outcomes (PubChem)
# GALR2 ag = activates the human galanin receptor 2. GALR2-expressing cells, agonist activation read-out. activation, %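 (tested at 5 µM)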. 140,000 tested, 0.48% active. O43603;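 active = above mean plus 3 SD of all compounds, about 5% in these data, not always enough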;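 also: 0% = vehicle buffer wells and 100% = reference agonist at full effect; tested in CHO reporter cells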
# RGS16-Gao = regulators of human RGS16-Galphao interaction; bead-based flow cytometry RGS16-Galphao binding, fluorescence; actives lie on both sides; O15492+P09471; 220,000 tested, 0.38% active; AID 1441; binding response (% of control), % at 10 µM;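 active = below 25% or above 175%, edge rows of some plates excepted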;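 also: Galphao activated by GDP with aluminum fluoride before binding; 100% = wells without compound and 0% = beads without RGS; some results beyond the cut were filed as inactive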
# Insulin prom inh = TRM-6 insulin promoter activity inhibition. 130,000 tested, 0.9% active. TRM-6 cells (human fetal islet line), insulin promoter-eGFP reporter, imaging; reporter expression induced with tamoxifen. inhibition, % at 2 µM. AID 1273;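 active = inhibition above the mean plus 3 SD, with well images judged a real hit on visual review, cut at about 60% in these data, passing the limit was not always enough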
# PKD1 inh = inhibitors of human PKD1 kinase | Q15139 | PKD1 kinase fluorescence polarization assay | inhibition, %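 (about 10 µM by stock and volumes)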 | 200,000 tested, 0.056% active | AID 797;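 active = inhibition of 50% or more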;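 also: controls were vehicle for no effect and a reference inhibitor for full effect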
# Target sequence (Q15139 whole entry, looked up): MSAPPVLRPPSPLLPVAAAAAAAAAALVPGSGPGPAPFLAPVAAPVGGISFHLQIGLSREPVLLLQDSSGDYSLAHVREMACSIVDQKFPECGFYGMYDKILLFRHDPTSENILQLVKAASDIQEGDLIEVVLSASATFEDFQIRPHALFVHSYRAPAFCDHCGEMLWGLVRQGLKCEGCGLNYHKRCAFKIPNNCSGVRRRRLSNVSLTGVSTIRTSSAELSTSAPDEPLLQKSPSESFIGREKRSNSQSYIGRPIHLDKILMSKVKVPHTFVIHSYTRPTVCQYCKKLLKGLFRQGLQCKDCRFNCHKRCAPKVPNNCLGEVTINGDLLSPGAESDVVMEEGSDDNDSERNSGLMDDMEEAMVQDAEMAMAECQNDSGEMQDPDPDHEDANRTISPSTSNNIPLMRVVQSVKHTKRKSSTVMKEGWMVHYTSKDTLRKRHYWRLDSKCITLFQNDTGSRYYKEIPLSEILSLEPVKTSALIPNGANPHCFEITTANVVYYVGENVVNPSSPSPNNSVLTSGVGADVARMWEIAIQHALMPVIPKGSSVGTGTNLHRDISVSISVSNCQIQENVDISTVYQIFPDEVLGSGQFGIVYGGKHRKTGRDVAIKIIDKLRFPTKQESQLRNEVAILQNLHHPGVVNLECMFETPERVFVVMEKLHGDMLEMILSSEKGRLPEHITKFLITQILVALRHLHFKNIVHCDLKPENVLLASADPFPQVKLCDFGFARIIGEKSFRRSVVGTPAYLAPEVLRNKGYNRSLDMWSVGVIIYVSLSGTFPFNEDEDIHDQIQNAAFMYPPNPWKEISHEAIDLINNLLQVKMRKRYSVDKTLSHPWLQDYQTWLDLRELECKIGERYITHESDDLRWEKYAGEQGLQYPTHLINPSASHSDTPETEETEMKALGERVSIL
# HSV augment = HSV replication enhancement; 220,000 tested, 0.005% active; HSV replication augmentation in cells, fold increase; maximum fold increase; AID 1956;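 active = peak rise of 1.5-fold or more in the series; tested in PC3 cells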;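 also: first round at 10 µM; read as green reporter fluorescence; hits show the peak of a series up to 25 µM; 1 = signal of infected wells without compound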
# Insulin prom inh cell count = second read-out of Insulin prom inh, no call of its own (marks repeat the call); normalized cell count, %; measured here: cell count, toxicity; reference of the scale not given here;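 cells exposed to compound for 48 h; stained nuclei by imaging scaled within each plate; lower means fewer cells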
# HSV augment primary fold = second read-out of HSV augment, no call of its own (marks repeat the call); fold increase; compound at 10 µM; measured here: primary screen fold increase 10 uM; tested in PC3 cells;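 GFP signal in the first replicate; 1 = infected wells without compound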
# An asterisk follows results filed as active; i = inactive; nt = not tested or not shown; & = joins results of further samples.
SMILES,GALR2 ag,RGS16-Gao,Insulin prom inh,Insulin prom inh cell count,PKD1 inh,HSV augment,HSV augment primary fold
CCOC(=O)Cn1c(=O)oc2cc(S(=O)(=O)NCCc3ccc(C)cc3)ccc21,-0.8,57,nt,nt,-5,i,1
CN1C(=O)/C(=C\c2cc(N=Nc3ccccc3)ccc2O)SC1=S,-2.3,100,nt,nt,-4,nt,nt
CCc1nnc(NC(=O)c2ccc(S(=O)(=O)N(CC)CC)cc2)s1,-1.8,105,nt,nt,-4,i,0.95
CCOc1ccccc1NC(=O)C(OC(=O)c1ccccc1)c1ccccc1 (stereo unspecified),-0.6,102,nt,nt,9,i,0.93
Cc1ccc(/C=N/NC(=O)c2cc(C)oc2C)o1,-2.9,105,-4,112,4,i,0.95
COc1ccc(/C=N/NC(=O)CN(C)S(=O)(=O)c2ccc(NC(C)=O)cc2)cc1,nt,101,nt,nt,-1,i,0.87
CN1C(=O)C(c2nnc(Nc3cccc4ccccc34)s2)C2CC1(C)Oc1ccccc12 (stereo unspecified),-0.8,104,14,114,1,i,0.95
O=C(NCCc1ccccc1)C1CCC(Cn2c(=O)c3ccccc3n(Cc3cccnc3)c2=O)CC1 (stereo unspecified),1.5,97,25,119,-16,i,0.99
COc1cccc(=O)c2c(C)n(-c3ccc(C(=O)O)cc3)c(C)c12,nt,95,nt,nt,0,nt,nt
CC(C)c1cc(-c2cc(-c3ccc(Cl)cc3)on2)nc(NCC2CC2)n1,nt,102,nt,nt,nt,i,0.68
COc1ccc2c(c1)c(C(C)=O)c(C)n2C,nt,94,nt,nt,nt,i,1
O=C(COc1cccc2cccnc12)N1CCc2ccccc2C1,1.6,93,21,85,-3,i,0.98
Cc1ccc(-c2csc(NNC(=O)c3ccccc3)n2)cc1,-0.8,107,-16,104,-12,i,0.81
Cc1ccc(C(=O)/C=C/Nc2ccccn2)cc1,-1.3,nt,-100,41,-8,i,0.99
c1ccc(COc2ccc(OCCCn3cncn3)cc2)cc1,-1.9,93,-19,133,-4,i,0.83
Cc1ccc(N(C(=O)c2csnn2)C(C(=O)NC(C)(C)C)c2cccnc2)cc1C (stereo unspecified),nt,102,-4,196,-3,i,0.99
Cc1ccc(CNC(=O)CSc2ccc(-c3cccs3)nn2)cc1,-0.9,101,nt,nt,-11,i,0.98
O=C(O)c1cccc(OCc2ccccc2Cl)c1,-1.4,110,0,120,1,i,0.76
CCOC(CNC(=O)CCc1c(C)nc2ncnn2c1C)OCC,-2.2,100,36,101,-13,i,0.99
COC(=O)COc1ccc(C)cc1-n1nc2ccccc2n1,nt,79,nt,nt,-2,i,1
O=C(CN1C(=O)NC2NC(=O)NC21)N/N=C/c1ccccc1O (stereo unspecified),nt,92,nt,nt,-4,i,0.91
Cc1ccccc1-n1c(SCC(=O)c2cc(C)n(C)c2C)nnc1-c1ccncc1,-1.3,98,-3,115,-7,i,1
O=C(Nc1ncc(Cc2ccccc2)s1)C1CCCO1 (stereo unspecified),-1.4,102,nt,nt,-5,i,0.82
COc1ccc(-n2cc(-c3ccccc3)c3c(NCCCN4CCOCC4)ncnc32)cc1,nt,201,nt,nt,2,i,0.93
N#Cc1ccc(NC(=O)COC(=O)CSc2nnc(-c3ccc(Cl)cc3)o2)cc1,-2.0,103,nt,nt,3,i,1
COc1ccc(/C(N)=N/OC(=O)c2ccc(OC)c([N+](=O)[O-])c2)cc1OC,nt,119,nt,nt,-8,i,1
COc1ccccc1-n1c(SCC(=O)NC2CCS(=O)(=O)C2)nc2cc([N+](=O)[O-])ccc21 (stereo unspecified),-0.7,108,-104,108,0,i,0.92
CCOC(=O)Cc1csc(NC(=O)c2sc3nc4ccc(C)cc4cc3c2N)n1,-2.4,119,7,93,-11,i,1.1
CC(C)NC(=O)CC1OC(=O)c2ccccc21 (stereo unspecified),-1.2,99,14,132,1,i,0.59
COC(=O)CSc1nc2nc(C)cc(C)n2n1,-3.0,103,nt,nt,-9,i,0.93
O=C(Cn1nc(-c2cccc(Cl)c2)ccc1=O)Nc1ccccc1Br,nt,103,52,77,1,i,0.98
C=CCNc1oc(/C=C/c2ccccc2)nc1C#N,12*,96,-17,115,3,i,0.96
COc1ccc(CNC(=O)c2ccc(C)o2)cc1,-0.8,102,14,145,-5,i,0.98
CC(C)(C)NC(=O)NC(=O)CSc1ncn[nH]1,nt,101,nt,nt,-7,i,0.88
C=CCOC(=O)/C(=C\c1ccccc1)NC(=O)c1ccc(C)cc1,nt,101,46,108,-2,i,0.92
C/C(CCN1CCc2nc(-c3ccccc3)c(-c3ccccc3)cc2C1)=N\O[C@@H](C)c1cn([C@H](CO)Cc2ccccc2)nn1,2.5,108,5,82,-8,nt,nt
c1ccc2c(c1)nnn2-c1ncnc2sc3c(c12)CCCC3,-1.9,110,nt,nt,-11,i,1
CC(C)(C)c1ccc(OCCCNCc2ccccc2)cc1,2.2,99,13,97,-2,i,0.66
CC(C)(C)NC(=O)COC(=O)c1cc(S(=O)(=O)N2CCCCC2)ccc1N1CCOCC1,-2.7,94,-27,92,-2,i,0.75
Cc1cc(C)nc(SCC(=O)n2c3c(c4ccccc42)CCCC3)n1,-0.1,101,8,80,8,i,1
Cc1cc(C(C)c2ccccc2)c(O)c(CN2CCOCC2)c1C (stereo unspecified),-2.4,103,18,125,-1,i,0.91
CC1CC(C)CN(C(=O)c2cccc3c2-c2ccccc2C3=O)C1 (stereo unspecified),nt,96,nt,nt,nt,i,1.2
Cc1cc(NC(=O)CSCc2nc(-c3cccc(Cl)c3)oc2C)no1,0.1,90,0,109,5,nt,nt
C=CCn1c(=NC(=O)c2cccc(N3C(=O)CCC3=O)c2)sc2cccc(OC)c21,nt,100,nt,nt,nt,i,0.9
O=C(Nc1cccc2ccccc12)N1CCc2ccccc2C1,-2.1,95,-400,84,9,i,0.88

# In a second layout: eleven of the compounds above.
# Each structure is followed by: GALR2 ag	RGS16-Gao	Insulin prom inh	Insulin prom inh cell count	PKD1 inh	HSV augment	HSV augment primary fold
- C=CCOC(=O)/C(=C\c1ccccc1)NC(=O)c1ccc(C)cc1
    nt	101	46	108	-2	i	0.92
- C/C(CCN1CCc2nc(-c3ccccc3)c(-c3ccccc3)cc2C1)=N\O[C@@H](C)c1cn([C@H](CO)Cc2ccccc2)nn1
    2.5	108	5	82	-8	nt	nt
- c1ccc2c(c1)nnn2-c1ncnc2sc3c(c12)CCCC3
    -1.9	110	nt	nt	-11	i	1
- CC(C)(C)c1ccc(OCCCNCc2ccccc2)cc1
    2.2	99	13	97	-2	i	0.66
- CC(C)(C)NC(=O)COC(=O)c1cc(S(=O)(=O)N2CCCCC2)ccc1N1CCOCC1
    -2.7	94	-27	92	-2	i	0.75
- Cc1cc(C)nc(SCC(=O)n2c3c(c4ccccc42)CCCC3)n1
    -0.1	101	8	80	8	i	1
- Cc1cc(C(C)c2ccccc2)c(O)c(CN2CCOCC2)c1C (stereo unspecified)
    -2.4	103	18	125	-1	i	0.91
- CC1CC(C)CN(C(=O)c2cccc3c2-c2ccccc2C3=O)C1 (stereo unspecified)
    nt	96	nt	nt	nt	i	1.2
- Cc1cc(NC(=O)CSCc2nc(-c3cccc(Cl)c3)oc2C)no1
    0.1	90	0	109	5	nt	nt
- C=CCn1c(=NC(=O)c2cccc(N3C(=O)CCC3=O)c2)sc2cccc(OC)c21
    nt	100	nt	nt	nt	i	0.9
- O=C(Nc1cccc2ccccc12)N1CCc2ccccc2C1
    -2.1	95	-400	84	9	i	0.88

# (listing goes on)
SMILES,GALR2 ag,RGS16-Gao,Insulin prom inh,Insulin prom inh cell count,PKD1 inh,HSV augment,HSV augment primary fold
CN(C(=S)Nc1ccc(F)cc1)C1(c2ccccc2Cl)CCCCC1=O (stereo unspecified),-1.2,93,-94,37,-1,i,1.1
CCN(CC)c1ccc(/C=C2/C(=O)ON=C2C)cc1,-2.4,109,-12,103,-8,i,1
COc1ccc(CCN2CC(C(=O)NC3CCCCC3)CC2=O)cc1OC (stereo unspecified),nt,105,-67,80,1,i,0.93
O=C(NC(=S)Nc1ccc(S(=O)(=O)N2CCCC2)cc1)C1CC1,nt,101,40,124,7,i,1
CCC(C)NC(=O)Cn1c(=O)n(CCCCC(=O)NCc2ccco2)c(=O)c2ccccc21 (stereo unspecified),-0.8,100,11,130,-2,i,0.9
CN(C)C(CNC(=O)c1cccnc1Sc1ccccc1)c1ccco1 (stereo unspecified),-2.9,121,nt,nt,0,i,1
CCN(CC)S(=O)(=O)c1ccc(C)c(NC(=S)N2CCN(C/C=C/c3ccccc3)CC2)c1,nt,97,-79,136,3,i,0.98
Cc1cc(=O)[nH]c(N/N=C/c2cccc([N+](=O)[O-])c2)n1,-0.7,116,nt,nt,-13,i,0.87
CCONC(=NC)c1nonc1N,0.0,102,-42,91,-4,i,1
C/C(CCC1CC(C)(C)OC1=O)=N\NC(N)=S (stereo unspecified),nt,107,nt,nt,nt,i,0.98
CCOCCCn1c(=N)c(C(=O)NCc2ccc3c(c2)OCO3)cc2c(=O)n3ccccc3nc21,1.2,278,7,81,-11,nt,nt
COc1cc2c(C#N)c(N3CCCC3)nc(N)c2c(N)n1,nt,102,nt,nt,nt,i,0.97&1.2
Cc1onc(-c2c(F)cccc2Cl)c1C(=O)N1C=CC(C(F)(F)F)=NCC1,-2.7,98,27,70,-5,i,0.81
Cc1cc(C)n2nc(SCc3cc(=O)oc4ccc5ccccc5c34)nc2n1,0.3,58,nt,nt,-16,nt,nt
COc1ccc(CC(=O)Nc2ccc3c(c2)CCC3)cc1OC,-1.1,104,-36,116,2,i,1
O=C(CCCCCn1c(=O)[nH]c2ccsc2c1=O)NCc1ccc2c(c1)OCO2,-0.5,94,-18,156,9,i,0.99
N#Cc1c(N)c(C#N)c(-c2ccc3c(c2)OCO3)c2c1CCCC2,nt,96,nt,nt,nt,i,0.66
CC1C(C#N)=C(SCC(N)=O)NC2=C1C(=O)CC(C)(C)C2 (stereo unspecified),nt,96,43,90,-3,i,0.98
CC(C)NCCOCCOc1ccccc1F,-3.1,149,nt,nt,-2,nt,nt
Cc1ccccc1N=C1NC(=O)CC(c2ccccc2)S1 (stereo unspecified),-0.6,104,-43,94,-2,i,0.83
Cc1cccc(-c2csc(NC(=O)c3cnccn3)c2C(=O)OC(C)C)c1,-0.6,100,3,82,-7,i,0.98
CCOCCCNC(=S)NCCCNc1nc2c(C)cc(C)cc2cc1C#N,nt,98,nt,nt,11,i,0.97
CCCCn1c(SCC(=O)Nc2nc(C)cs2)nnc1-c1cccnc1,0.7,103,27,88,0,i,1.1
CC1=NN(C(=S)Nc2ccccc2)C(c2ccccc2)C1 (stereo unspecified),-0.6,102,7,101,-4,i,0.95
CC1CCc2c(sc3nc(CSc4n[nH]c(N)n4)[nH]c(=O)c23)C1 (stereo unspecified),0.0,95,-33,93,-1,i,0.83
O=C(Nc1nnc(-c2ccccc2)o1)c1ccc(Cl)cc1,0.2,103,nt,nt,-13,i,0.92
CCCn1c2ccc(F)cc2c2nnc(NN)nc21,nt,122,0,68,1,i,0.98
Cc1oc(C)c(C(=O)Nc2ccc(CC(=O)O)cc2)c1C(=O)Nc1ccc(CC(=O)O)cc1,-1.1,100,7,71,2,i,1
N/C(=N\OC(=O)CCc1ccccc1)c1cccnc1,nt,105,nt,nt,-2,i,0.83
CC(Sc1nnc(-c2cc3ccccc3o2)n1-c1ccccc1)C(=O)O (stereo unspecified),-2.4,112,-18,145,-2,i,0.84
COc1ccc(C2CC(c3cccs3)=NN2C(=O)CSc2nncs2)cc1OC (stereo unspecified),nt,108,nt,nt,-3,i,0.95
Cc1ccc2cc(CCNC(=O)C(=O)c3c(C)[nH]c4ccccc34)c(=O)[nH]c2c1,nt,100,-84,95,-10,i,1.1
Cc1ccc(C(=O)C(OC(=O)COc2ccccc2C)c2ccccc2)cc1 (stereo unspecified),-1.8,107,-93,90,5,i,0.87
Cc1ccc(-c2nnc(-c3ccc(NC(=O)c4ccco4)cc3)o2)cc1,-0.6,107,3,92,-6,i,0.83
CC(C)(C)C(=O)NC(=C(Cl)Cl)P(=O)(O)O,-0.9,95,-18,78,-4,i,0.95
COc1cc2c(cc1OC)[C@@H]1Cc3cc4c(cc3[C@H](C2)N1C)OCO4,-1.9,109,33,113,-6,i,0.71
Clc1ccc(-n2ncc3c(NCCN4CCOCC4)ncnc32)cc1,-0.2,100,-44,99,-5,i,0.96
COc1cc(CN=Cc2c(O)n(Cc3ccccc3)c(=S)[nH]c2=O)cc(OC)c1,nt,97,nt,nt,nt,i,0.92
CCC(C)OC(=O)C1=C(C)NC(=O)NC1c1ccc(F)cc1 (stereo unspecified),-3.2,81,nt,nt,-10,i,1

# No enrichment for hits. About 1.2% of those tested had a hit in this group.
